TRPV1 potentiator: human TRPV1 potentiation; TRPV1-expressing cells, Fluo-8 calcium influx, capsaicin EC20 potentiation; host cell line not named in the record; control for the full effect not named in the record; Q8NER1; 320,000 tested, 0.02% active; potentiation, % at 8.33 µM; active means potentiation above 80%; inconclusive means 30% to 80%; inactive means below 30%; also: 0% is about no effect
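Cells expressing TRPV1 were dye-loaded with Fluo-8 and read kinetically: 10 s baseline, 3 min after compound (agonist portion), then 2 min after EC20 capsaicin (allosteric enhancer portion). Calcium-bound dye fluorescence at 480/520 nm.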
Six1-Eya2 inh: blocks human Six1 binding to Eya2. AID 651725. activity change, % (concentration not given with the values). Q15475+O00167. 360,000 tested, 0.56% active. AlphaScreen GST-Six1/His-Eya2 binding, biochemical; hits give low values; control for the full effect not named in the record; in the data active = activity change below about -65%; inconclusive = about -30% to -65%; inactive = above about -30%; also: % is scaled to controls: 0 for no effect and ±100 for the full control effect
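Compounds are tested against tagged Six1 and Eya2 proteins bridged by glutathione donor and nickel acceptor beads; after a one-hour incubation at 37 °C without light, AlphaScreen emission is recorded.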
D2 ag: activates the human D2 dopamine receptor | AID 624465 | activation, % (concentration not given with the values) | DiscoveRx PathHunter D2 beta-arrestin, luminescence, 90 min; 100% = 57 uM dopamine signal | 360,000 tested, 0.084% active | P14416; in the data active = activation above about 40%; inconclusive = about 15% to 40%; inactive = below about 15%; also: compound concentration not given in the record; the text of the record calls up to 30% inactive
Target sequence (P14416 whole entry, looked up): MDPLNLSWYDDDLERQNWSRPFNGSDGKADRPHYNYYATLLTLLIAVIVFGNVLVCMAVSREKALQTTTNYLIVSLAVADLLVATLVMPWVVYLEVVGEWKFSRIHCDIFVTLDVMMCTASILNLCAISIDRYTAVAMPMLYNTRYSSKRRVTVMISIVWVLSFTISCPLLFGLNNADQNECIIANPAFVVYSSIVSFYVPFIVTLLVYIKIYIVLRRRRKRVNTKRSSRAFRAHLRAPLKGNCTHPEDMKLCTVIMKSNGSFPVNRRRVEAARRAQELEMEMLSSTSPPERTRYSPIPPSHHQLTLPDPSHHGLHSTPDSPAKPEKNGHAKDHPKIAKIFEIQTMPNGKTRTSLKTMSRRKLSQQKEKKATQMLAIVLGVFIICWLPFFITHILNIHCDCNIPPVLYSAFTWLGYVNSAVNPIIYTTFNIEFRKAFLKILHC
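DiscoveRx PathHunter D2 beta-arrestin cells (2,100/well) attached overnight, then compound-stimulated 90 min at 37 C in HBSS/10 mM HEPES/0.1% Tween-20 buffer; beta-galactosidase complementation read by luminescence after 1 h at ambient temperature. Dopamine 57 uM final (EC100) as control.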
D2 PAM: positive allosteric modulators of human D2 dopamine receptor | P14416 | 360,000 tested, 0.23% active | potentiation, % (test concentration not listed) | DiscoveRx D2 beta-arrestin cells, luminescence, 90 min; 100% = 57 uM dopamine signal; active = potentiation of 50% or more; inconclusive = 30% to 50%; inactive = 30% or less;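 also: compound concentration not given in the record; tested on top of an EC20 dose of dopamine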
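PathHunter D2 cells, attached overnight at 37 deg C, received compound in DMSO plus dopamine at EC20 (50 nM final) for 90 min at 37 deg C. Beta-arrestin recruitment was read as luminescence after 1 h with detection reagent at ambient temperature.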
CtBP-E1A inh: CtBP/E1A binding inhibition; AlphaScreen GST-E1A/His-CtBP binding, 1536-well; hits give low values; control for the full effect not named in the record; activity change, % (concentration not given with the values); 340,000 tested, 0.49% active; AID 651724; in the data active means activity change below about -65%; inconclusive means about -30% to -65%; inactive means above about -30%; also: % is scaled to controls: 0 for no effect and ±100 for the full control effect
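Steps: dispense buffer (Tris pH 8.0, NaCl 300 mM, TCEP 1 mM, BSA, Tween 20); add 5X protein mix (GST-E1A, His-CtBP, 125 nM each); pin 23 nL compound; 2 h at 37 °C, dark; add 5X beads (50 ug/mL); 1 h; read.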
Sfp inh: Sfp phosphopantetheinyl transferase inhibition; Q9F4F7; AID 1490; 310,000 tested, 3.5% active; Potency, µM, inactives show max response, negative = inhibition, most hits filed as inhibitors; Biochemical Sfp PPTase activity, qHTS; active = well fitted inhibition curve with a large enough effect; inconclusive = small, poorly fitted or top-dose-only effect, or another doubt; inactive = no such curve, though single readings can be large or run the other way;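 also: the enzyme is Sfp with the accession as filed and its product quenches rhodamine fluorescence; potency is read from the fitted curve at half-maximal effect; 0% = enzyme reaction without inhibitor and -100% = no enzyme wells; top concentration of the series not given in the record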
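Fluorescence-quenching assay: 15 nM Sfp-PPTase preincubated 15 min at room temperature with compound, then 5 uM rhodamine-CoA and 12.5 uM BHQ-2-labelled YbbR peptide added. Fluorescence (ex 525/em 598 nm) read at start and after 30 min; difference gives rate.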
PINK1 expr mod: changes PINK1 expression; 410,000 tested, 0.2% active; Potency, µM (titrated, usually from 76.6 µM), inactives show at the highest dose activation (PINK1 increase), actives largely listed as activators; PINK1 immunofluorescence, high-content cytometry, 24 h; AID 624263; active = well fitted activation curve with a large enough effect; inconclusive = small, poorly fitted or top-dose-only effect; inactive = flat fitted curve, though single readings scatter; cell line not stated here;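 also: potency is read from the fitted curve at half-maximal effect; % of control where 0% means no effect; nearly all actives have a fitted effect of over 65% in size; a mitochondrial uncoupler was the plate control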
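Stable cell line treated 24 h with compounds at 5 concentrations (CCCP controls), then fixed and immunostained for PINK1 plus nuclear and cell stains; PINK1 immunofluorescence quantified by laser-scanning microplate cytometry.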
The depositor's hits bear a star; [ ] = remark or other dose.

The opening four entries, ahead of the listing:
What do the screens show for `COc1ccccc1NC(=O)Cn1c(CCC(=O)O)ccc1-c1ccccc1`?
TRPV1 potentiator: 7; Six1-Eya2 inh: 11; D2 ag: -3.8; D2 PAM: -6; CtBP-E1A inh: 1; Sfp inh: 18%; PINK1 expr mod: 6.1%

Results for CCN1CCN(Cc2nc3cc(NC(=O)COc4ccc([N+](=O)[O-])cc4)ccc3n2C)CC1 ?
TRPV1 potentiator: -1; Six1-Eya2 inh: -1; D2 ag: 0.0; D2 PAM: 0; CtBP-E1A inh: 0; Sfp inh: 18%; PINK1 expr mod: -0.5%

How did O=C1c2[nH]nc(-c3ccccc3O)c2C(c2ccc(F)cc2)N1Cc1ccco1 (stereo unspecified) do in these assays?
TRPV1 potentiator: -1; Six1-Eya2 inh: -18; D2 ag: -1.1; D2 PAM: 4; CtBP-E1A inh: -17; Sfp inh: -25%; PINK1 expr mod: -22%[38.3 µM]

How did CCOc1ccccc1N1CCN(C(=O)Cc2ccc(S(=O)(=O)N3CCOCC3)s2)CC1 do in these assays?
TRPV1 potentiator: 0; Six1-Eya2 inh: -1; D2 ag: -3.9; D2 PAM: -7; CtBP-E1A inh: 0; PINK1 expr mod: -1.3%

Main list, from the first entry:
What do the screens show for `COc1ccccc1NC(=O)Cn1c(CCC(=O)O)ccc1-c1ccccc1`?
TRPV1 potentiator: 7; Six1-Eya2 inh: 11; D2 ag: -3.8; D2 PAM: -6; CtBP-E1A inh: 1; Sfp inh: 18%; PINK1 expr mod: 6.1%

Results for CCN1CCN(Cc2nc3cc(NC(=O)COc4ccc([N+](=O)[O-])cc4)ccc3n2C)CC1 ?
TRPV1 potentiator: -1; Six1-Eya2 inh: -1; D2 ag: 0.0; D2 PAM: 0; CtBP-E1A inh: 0; Sfp inh: 18%; PINK1 expr mod: -0.5%

How did O=C1c2[nH]nc(-c3ccccc3O)c2C(c2ccc(F)cc2)N1Cc1ccco1 (stereo unspecified) do in these assays?
TRPV1 potentiator: -1; Six1-Eya2 inh: -18; D2 ag: -1.1; D2 PAM: 4; CtBP-E1A inh: -17; Sfp inh: -25%; PINK1 expr mod: -22%[38.3 µM]

How did CCOc1ccccc1N1CCN(C(=O)Cc2ccc(S(=O)(=O)N3CCOCC3)s2)CC1 do in these assays?
TRPV1 potentiator: 0; Six1-Eya2 inh: -1; D2 ag: -3.9; D2 PAM: -7; CtBP-E1A inh: 0; PINK1 expr mod: -1.3%

Results for CCCN(c1ccccc1F)S(=O)(=O)c1c[nH]c(C(=O)OC)c1 ?
TRPV1 potentiator: -4; Six1-Eya2 inh: 4; D2 ag: -4.7; D2 PAM: -3; CtBP-E1A inh: 3; Sfp inh: 19%; PINK1 expr mod: 1.2%

Results for COCCSc1nnc(-c2cnccn2)o1 ?
TRPV1 potentiator: 10; Six1-Eya2 inh: -4; D2 ag: -2.7; D2 PAM: -10; CtBP-E1A inh: 7; Sfp inh: 24%; PINK1 expr mod: 1.7%

What do the screens show for `O=C(/C=C/c1ccccc1)Nc1cccc(C(=O)NCCCCc2ccccc2)c1`?
Six1-Eya2 inh: -8; D2 ag: 0.4; CtBP-E1A inh: -2; PINK1 expr mod: -0.1%

How did COC(=O)C1CCN(C(c2ccc(OC)c(OC)c2)c2sc3nc(C)nn3c2O)CC1 (stereo unspecified) do in these assays?
TRPV1 potentiator: 2; Six1-Eya2 inh: 1; D2 ag: -2.1; D2 PAM: -7; CtBP-E1A inh: -3; Sfp inh: 20%; PINK1 expr mod: -2.2%

Results for O=C(/C=N/O)Nc1ccccc1 ?
TRPV1 potentiator: 5; Six1-Eya2 inh: 2; D2 ag: -2.1; D2 PAM: -7; CtBP-E1A inh: 0; Sfp inh: 13%; PINK1 expr mod: -1.9%

What do the screens show for `Cc1ccc(N2C(=O)NC(NS(=O)(=O)c3ccc(C)cc3)(C(F)(F)F)C2=O)cc1` (stereo unspecified)?
TRPV1 potentiator: 10; Six1-Eya2 inh: 0; D2 ag: -1.1; D2 PAM: -4; CtBP-E1A inh: 0; Sfp inh: 20%; PINK1 expr mod: 0.6%

How did CCCC(=O)NC(c1ccccc1)c1ccc2cccnc2c1O (stereo unspecified) do in these assays?
TRPV1 potentiator: 12; Six1-Eya2 inh: -66*; D2 ag: 0.3; D2 PAM: -11; CtBP-E1A inh: -91*; Sfp inh: 11%; PINK1 expr mod: 2.3%

What do the screens show for `Cc1ccc(C)c(NC(=O)CCc2ccc(S(=O)(=O)NC3CCCCC3)cc2)c1`?
TRPV1 potentiator: 20; Six1-Eya2 inh: 7; D2 ag: 0.2; D2 PAM: 2; CtBP-E1A inh: -5; Sfp inh: -2%; PINK1 expr mod: 1.2%

What do the screens show for `CCC1CCCCN1S(=O)(=O)c1ccc(NC(=O)c2cccnc2)cc1` (stereo unspecified)?
TRPV1 potentiator: -20; Six1-Eya2 inh: -18; D2 ag: -3.0; D2 PAM: -16; CtBP-E1A inh: 18; Sfp inh: 4%; PINK1 expr mod: 1.6%

What do the screens show for `Cc1ccc(C)c(N2N=C(C(=O)Nc3ccc(S(=O)(=O)N4CCCC4)cc3)CCC2=O)c1`?
TRPV1 potentiator: 20; Six1-Eya2 inh: 2; D2 ag: 1.3; D2 PAM: -4; CtBP-E1A inh: 2; Sfp inh: 14%; PINK1 expr mod: 2.7%

Results for Cc1ccc(C(=O)N/C(=C\c2ccccc2)C(=O)NCc2cccnc2)cc1 ?
TRPV1 potentiator: 5; Six1-Eya2 inh: -10; D2 ag: -5.1; D2 PAM: -1; CtBP-E1A inh: 6; Sfp inh: 16%; PINK1 expr mod: 0.0%

How did CC(=O)c1cccc(-c2ccnc3c2CC(C(=O)Nc2cccc(NS(C)(=O)=O)c2)O3)c1 (stereo unspecified) do in these assays?
Six1-Eya2 inh: -10; D2 ag: -3.9; D2 PAM: -24; CtBP-E1A inh: -1; PINK1 expr mod: 2.7%

What do the screens show for `CCNC(=O)N1CCC(n2nccc2NC(=O)CCCc2ccccc2)CC1`?
TRPV1 potentiator: -10; Six1-Eya2 inh: 4; D2 ag: -1.2; D2 PAM: -1; CtBP-E1A inh: -6; Sfp inh: 6%; PINK1 expr mod: -0.2%

How did CN1CCN(S(=O)(=O)c2ccc(NC(=O)COc3ccccc3)cc2)CC1 do in these assays?
TRPV1 potentiator: 12; Six1-Eya2 inh: 9; D2 ag: -2.2; D2 PAM: -7; Sfp inh: 8%; PINK1 expr mod: 1.0%

Results for NS(=O)(=O)c1ccc(NC(=S)NC(=O)c2ccc3c(c2)OCO3)cc1 ?
TRPV1 potentiator: 1; Six1-Eya2 inh: 1; D2 ag: -3.5; D2 PAM: -9; CtBP-E1A inh: 0; Sfp inh: -7%; PINK1 expr mod: 19%

Results for CC1(C(=O)NS(=O)(=O)c2ccc3c(c2)CCO3)CCN1C(=O)COc1ccc(Cl)cc1 (stereo unspecified) ?
Six1-Eya2 inh: 5; D2 ag: 8.8; D2 PAM: -1; CtBP-E1A inh: -11; PINK1 expr mod: 0.1%

How did Cc1cc(Nc2ccc(C)c(C)c2)c2ccccc2n1 do in these assays?
TRPV1 potentiator: -7; Six1-Eya2 inh: -6; D2 ag: -0.9; D2 PAM: -11; CtBP-E1A inh: -3; Sfp inh: 13%; PINK1 expr mod: 23%

Results for COc1ccc2cc3cc(C(=O)N4CCN(c5ccccn5)CC4)oc3nc2c1 ?
TRPV1 potentiator: -10; Six1-Eya2 inh: -3; D2 ag: 1.2; D2 PAM: -5; Sfp inh: 21%; PINK1 expr mod: -0.4%

What do the screens show for `CCN1C[C@@H]2[C@@H]3C(=O)N(C)C(=O)[C@@H]3[C@](C)(C1=O)N2C(=O)c1ccc(C(F)(F)F)cc1`?
Six1-Eya2 inh: 0; D2 ag: -2.5; D2 PAM: -7; CtBP-E1A inh: -1; PINK1 expr mod: 1.1%

Results for CCOc1ccc(C(=O)NC2CCN(C(=O)Nc3ccc(F)cc3)CC2)cc1 ?
TRPV1 potentiator: -13; Six1-Eya2 inh: 3; D2 ag: 6.3; D2 PAM: -2; CtBP-E1A inh: 4; Sfp inh: 9%; PINK1 expr mod: 3.7%

Results for Cc1occc1C(=O)NNS(=O)(=O)c1ccc([N+](=O)[O-])cc1 ?
TRPV1 potentiator: -20; Six1-Eya2 inh: -1; D2 ag: -0.3; D2 PAM: 6; CtBP-E1A inh: 2; Sfp inh: 9%; PINK1 expr mod: -3.6%

What do the screens show for `COC(=O)CNC(=O)CSc1nnc(C)c(=O)[nH]1`?
TRPV1 potentiator: 0; Six1-Eya2 inh: 8; D2 ag: -3.6; D2 PAM: -14; CtBP-E1A inh: 5; Sfp inh: -25%; PINK1 expr mod: 1.1%

What do the screens show for `Cc1cccc(Nc2nc(C)nc3c2oc2ccccc23)c1`?
TRPV1 potentiator: -1; Six1-Eya2 inh: -6; D2 ag: -3.3; D2 PAM: 0; CtBP-E1A inh: 3; Sfp inh: inconclusive; PINK1 expr mod: 1.6%

Results for O=C(NCc1ccc2c(c1)OCO2)C1CCCN1S(=O)(=O)c1ccc(F)cc1 (stereo unspecified) ?
TRPV1 potentiator: -3; Six1-Eya2 inh: 1; D2 ag: 2.9; D2 PAM: 0; CtBP-E1A inh: 4; Sfp inh: 11%; PINK1 expr mod: 0.4%

How did O=C(CCS(=O)(=O)c1ccccc1)N1CCN(c2cccc(C(F)(F)F)c2)CC1 do in these assays?
TRPV1 potentiator: -18; Six1-Eya2 inh: -13; D2 ag: -2.8; D2 PAM: -8; CtBP-E1A inh: -3; Sfp inh: 11%; PINK1 expr mod: 0.7%

How did COc1cc(OC)c(C2N(c3ccc(Cl)cc3)C(=O)C3CCCN32)cc1OC (stereo unspecified) do in these assays?
Six1-Eya2 inh: 5; D2 ag: 1.3; D2 PAM: 0; CtBP-E1A inh: -2; Sfp inh: 12%; PINK1 expr mod: 1.5%

Results for C=CCC[C@H](Cc1ccc(F)cc1)C(=O)OC[C@@H](NC(=O)[C@@H](CC=C)CC(=O)N(CCO)Cc1ccccc1)C(C)(C)C ?
Six1-Eya2 inh: 9; D2 ag: 7.1; D2 PAM: -5; CtBP-E1A inh: -25; PINK1 expr mod: 12%

What do the screens show for `O=[N+]([O-])c1cc(S(=O)(=O)N2CCOCC2)ccc1NS(=O)(=O)c1ccccc1`?
Six1-Eya2 inh: -6; D2 ag: -2.6; D2 PAM: -22; CtBP-E1A inh: -2; PINK1 expr mod: 3.4%

Assay outcomes as filed in PubChem.
